HCMV NEC inh: cytomegalovirus nuclear egress complex inhibition. inhibition, % (test concentration not listed). hit rate 0.15% among 190,000. HTRF UL50-UL53 interaction, normalized percent inhibition. AID 1918969;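 active means both replicates at 50% or more, plus weaker picks with an unusually low signal ratio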;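 further: stock transfer was 100 nL into about 20 µL; 0% = negative control wells and 100% = wells with untagged competitor protein; inactives centre near -12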
Sa growth inh: blocks Staphylococcus aureus growth; S. aureus RN4220 growth, OD600, 20 h, 42 °C; active compounds read low; relative growth, % (concentration not given with the values); hit rate 0.53% among 170,000; AID 720641;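 active means growth at 42 °C up to 50% and 20 or more points under that at 30 °C, or under 10% at both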;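 further: 300 nL library stock went into each well; scaled to the means of positive and negative controls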
GIV Gai3 FP: inhibitors of GIV GBA-motif binding to rat Galpha-i3; Galpha-i3/FITC-GIV peptide fluorescence polarization, 90 min; active compounds read low; scaled: aluminum fluoride 0%, vehicle 100%; P08753; percent of control (FP), % (no concentration beside the values); hit rate 0.42% among 210,000;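 active means replicate mean at 85% of control or lower, very high polarization wells dropped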;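 further: wells of about 15 µL received 100 nL stock; the first replicate is given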
Target sequence (P08753 whole entry, looked up): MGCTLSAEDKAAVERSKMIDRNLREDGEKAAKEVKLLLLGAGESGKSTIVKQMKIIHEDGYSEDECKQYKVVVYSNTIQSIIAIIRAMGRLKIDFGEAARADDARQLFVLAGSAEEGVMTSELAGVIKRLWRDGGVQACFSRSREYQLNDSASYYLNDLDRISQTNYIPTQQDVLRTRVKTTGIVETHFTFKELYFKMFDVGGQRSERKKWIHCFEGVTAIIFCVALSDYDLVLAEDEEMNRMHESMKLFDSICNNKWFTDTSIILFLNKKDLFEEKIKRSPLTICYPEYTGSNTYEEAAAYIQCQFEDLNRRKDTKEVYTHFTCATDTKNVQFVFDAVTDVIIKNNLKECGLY
Sa growth inh second temp: second read-out of Sa growth inh, no call of its own (marks repeat the call); relative growth, %; measured here: growth at 30 °C;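 optical density after 20 h as mean of two plates; 100% = untreated growth and lower means inhibition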
An asterisk follows results filed as active; · = no result given; & = joins results of further samples.

SMILES	HCMV NEC inh	Sa growth inh	Sa growth inh second temp	GIV Gai3 FP
CCCNC(=O)c1ccc(COc2ccc(C)cc2)o1	0	99	96	103
Cc1c(-c2nsc(NC(=O)c3ccc(Cl)cc3)n2)nnn1-c1ccc(C(C)C)cc1	·	105	76	102
O=C(NC(Cc1ccccc1)C(=O)NCc1ccco1)c1ccccc1 (stereo unspecified)	-38	97	90	·
Cc1ccc(NC(=O)C2CCCN(S(=O)(=O)c3cccc4nsnc34)C2)c(C)c1 (stereo unspecified)	-70	107	84	101
COc1ccc(C)cc1NC(=O)c1oc2ccc(S(=O)(=O)N3CCC4(CC3)OCCO4)cc2c1C	·	114	92	103
COc1ccc(Oc2ccc(/C(N)=C/C#N)cc2)cc1	0	·	·	108
O=c1cc(CN2CCOCC2)nc2nc(NCc3ccccc3Cl)[nH]n12	-32	·	·	101
CCc1ccc2c(c1)C(NC(C)=O)C(=O)N2 (stereo unspecified)	-23	105	86	106
Cc1cccc(Oc2coc3cc(OC(=O)c4cccnc4)ccc3c2=O)c1	·	92	85	101
O=C(CSC1=NNC(=O)C1C1CC1)Nc1cccc(Br)c1 (stereo unspecified)	-16	121	83	·
Cc1ccc(OCCN2CCN(c3ncnc4scc(-c5ccccc5)c34)CC2)cc1	·	101	102	103
COc1cccc(CN2NS(=O)(=O)c3ccccc3C2=O)c1	-31	97	84	·
CC(Sc1ccc(Cl)cc1)C(=O)NCc1ccc2c(c1)OCO2 (stereo unspecified)	7	96	85	·
O=C(Nc1ccc(Br)cc1)C1CCCN1S(=O)(=O)c1ccc(F)cc1 (stereo unspecified)	6&-12	111	93	108&100
CN1C(=O)CCN(C=O)c2ccccc21	10	74	95	·
Cc1ccc(C)c(N2CCN(S(=O)(=O)c3ccc4c(c3)CC(C)N4C(=O)C3CC3)CC2)c1 (stereo unspecified)	-8	·	·	103
Cc1ccccc1CNC(=O)c1cc2cccc3c2n1CC(C)S3 (stereo unspecified)	·	106	96	102
C=CCN1C(=O)/C(=C/c2cn(C(C)CC)c3ccccc23)C(=O)NC1=S (stereo unspecified)	·	78	94	238
CCCC(O)c1nc2ccccc2n1Cc1ccccc1OC (stereo unspecified)	0	84	84	109
CC(=O)Oc1ccc(C(=O)COc2ccc(F)cc2)c(O)c1C	14	101	97	·
Cc1ccc(Cn2c(=O)n(CC3CCC(C(=O)N4CCC(C)CC4)CC3)c(=O)c3sccc32)cc1 (stereo unspecified)	·	89	87	97
COCCCNC(=O)c1ccc(Cn2c(SCc3cccc(OC)c3)nc3ccncc32)cc1	-28	·	·	106
C=Cn1cccc1-c1ccc(OC)cc1	-14	80	56	161
Cc1ccc(NC(=O)c2ccc(Cl)cc2Cl)c(C(=O)c2ccccc2)c1	-9	95	89	108
CCOc1ccc(-c2nc(CSCC(=O)NCCc3ccccc3)c(C)o2)cc1	·	78	97	98
Cc1cc(C)c(NC(=O)Cn2cc(S(=O)(=O)Cc3ccccc3F)c3ccccc32)c(C)c1	·	93	83	99
O=C(O)CCC(=O)Nc1ccc(S(=O)(=O)N2CCCC2)cc1	·	103	88	102
Cc1ccc2[nH]cc(CCNC(=O)CCn3c(=O)c(C)nc4ccccc43)c2c1	-11	·	·	108
O=C(CSc1nnc(-c2cccnc2)o1)NCc1ccccc1Br	-18	·	·	99
Cc1ccc(NC(=O)NCCOCCn2c(=O)oc3ccccc32)c(C)c1	-16	104	92	97
O=C(CSc1nccn2nc(-c3ccc(Cl)cc3)cc12)NC1CCCCC1	-8	·	·	101
CC1CC(C)CN(S(=O)(=O)N2CCCC(C(=O)NC3CCCC(C)C3C)C2)C1 (stereo unspecified)	·	126	90	102
Cc1ccc(NC(=O)CSc2nnc3scc(-c4ccc(Cl)cc4)n23)cc1	-22	110	87	101
O=C(NCC(c1ccc2c(c1)OCO2)N1CCN(c2ccccc2)CC1)c1ccccc1 (stereo unspecified)	·	105	79	99
CSc1ccc(CCNC(=O)c2ccc(-c3nc(COc4ccc(C)cc4)c(C)o3)cc2)cc1	·	108	100	105
NCCCCCCCCCCN	-25	·	·	105
CCOC(=O)c1c(-c2ccc(Cl)cc2)csc1NC(=O)c1sc(C)nc1C	3	·	·	110
Cc1ccccc1OCC(O)CN1C(=O)N(CN2C(=O)N(CC(O)COc3ccccc3C)C(=O)C2(C)C)C(C)(C)C1=O (stereo unspecified)	-21	82	60	99
Cc1ccc2c(c1)OCC(=O)N2CC(=O)O	10	·	·	101
COc1cccc(-n2cc(C(=O)NCCC(C)C)c3ccccc3c2=O)c1	·	84	86	109

Exported as labelled records: part of the list above
smiles: CSc1ccc(CCNC(=O)c2ccc(-c3nc(COc4ccc(C)cc4)c(C)o3)cc2)cc1
  HCMV NEC inh: ·
  Sa growth inh: 108
  Sa growth inh second temp: 100
  GIV Gai3 FP: 105

smiles: NCCCCCCCCCCN
  HCMV NEC inh: -25
  Sa growth inh: ·
  Sa growth inh second temp: ·
  GIV Gai3 FP: 105

smiles: CCOC(=O)c1c(-c2ccc(Cl)cc2)csc1NC(=O)c1sc(C)nc1C
  HCMV NEC inh: 3
  Sa growth inh: ·
  Sa growth inh second temp: ·
  GIV Gai3 FP: 110

Fetched by compound from the entries so far:
SMILES	HCMV NEC inh	Sa growth inh	Sa growth inh second temp	GIV Gai3 FP
Cc1ccc(C)c(N2CCN(S(=O)(=O)c3ccc4c(c3)CC(C)N4C(=O)C3CC3)CC2)c1 (stereo unspecified)	-8	·	·	103
Cc1cccc(Oc2coc3cc(OC(=O)c4cccnc4)ccc3c2=O)c1	·	92	85	101
CC(Sc1ccc(Cl)cc1)C(=O)NCc1ccc2c(c1)OCO2 (stereo unspecified)	7	96	85	·
O=C(CSc1nnc(-c2cccnc2)o1)NCc1ccccc1Br	-18	·	·	99
CC1CC(C)CN(S(=O)(=O)N2CCCC(C(=O)NC3CCCC(C)C3C)C2)C1 (stereo unspecified)	·	126	90	102
COCCCNC(=O)c1ccc(Cn2c(SCc3cccc(OC)c3)nc3ccncc32)cc1	-28	·	·	106

Next part
SMILES	HCMV NEC inh	Sa growth inh	Sa growth inh second temp	GIV Gai3 FP
Cc1cc(C(=O)NC2CCCC2)c2ccccc2n1	-15	86	93	·
Cc1c(Cl)cccc1NC(=O)N1CCN(Cc2ccc3nccnc3c2)CC1	-41	·	·	103
CC1CCCN(C(=O)Cc2cccs2)C1 (stereo unspecified)	-3	118	88	·
CN(C)C(=O)COC(=O)c1oc2ccccc2c1COc1ccccc1	0	91	104	·
Cc1ccc(CN2CCc3nc(SCC(=O)Nc4cccc(C)c4C)[nH]c(=O)c3C2)cc1	-8	79	88	107
Cc1cccc(C)c1OCC(=O)NCC1(N2CCOCC2)CCCCC1	4	98	97	96
CN1Cc2ccccc2CC1C(=O)O (stereo unspecified)	-2	104	84	102
C/C(=N\O)C(=O)C(CN1CCCCC1)CN1CCCCC1	-2	100	96	102
C=CCN1C(=O)/C(=c2\sc3nc(-c4ccccc4)nn3c2=O)c2ccccc21	·	120	84	99
CC1CCCCN1CCNC(=O)c1ccc2c(Cl)c3c(nc2c1)CCCC3 (stereo unspecified)	·	101	97	99
COc1cc(/C=C2\C(=O)N(c3ccc(Cl)c(C(=O)O)c3)N=C2C)c([N+](=O)[O-])cc1OC	-32	·	·	102
CC(=O)O/N=C(\N)Cc1csc2ccc(Cl)cc12	-36	101	81	104
Cc1ccc(-n2nnnc2-c2c[nH]c3cc(Cl)c(F)cc23)cc1	-18	91	83	101
CCCCn1c(O)c(N=NC(=O)CNc2ccc(OC)cc2)c2ccccc21	-76	88	90	·
CCCNC(=O)c1sc(-n2[nH]c(C)c(Cc3ccc(C)cc3)c2=O)nc1C	-29	·	·	102
COc1ccc2c(c1)c(=O)c(C(=O)c1ccc(F)cc1)cn2CC(=O)Nc1ccc2c(c1)OCO2	-26	103	80	104
CC1=C(C(=O)OCCc2ccccc2)C(c2ccc(N(C)C)cc2)NC(=S)N1 (stereo unspecified)	32	124	77	·
COc1ccc(N(C(=O)c2ccccc2F)S(=O)(=O)c2ccc3c(c2)n(C)c(=O)n3C)cc1	-18	99	90	100
CCN(CC)C(=O)c1ccc2c(c1)N(Cc1ccccc1F)C(=O)c1ccccc1S2=O (stereo unspecified)	11	98	85	105
COc1cccc(NC(=O)c2cc3c(=O)n(Cc4cccnc4)ccc3nc2C)c1	·	83	91	97
CCS(=O)(=O)c1cccc(C(=O)Nc2nc3c(s2)C(=O)CC(C)(C)C3)c1	-66	104	74	103
Cc1ccc(CC(=O)Nc2ccc(S(=O)(=O)NCc3ccco3)cc2)cc1C	-6	90	98	·
O=C(O)c1cccn2c(=O)c3cc(Cl)ccc3nc12	-45	·	·	107
COc1ccc(C=C2C(=O)OC(c3ccccc3)OC2=O)c(OC)c1OC (stereo unspecified)	·	102	80	99
Cc1ccc(N(O)C(=O)Nc2ccccc2)cc1	-5	93	97	104
CCO/C=C1/C(=O)N(c2ccc(S(=O)(=O)N3CCOCC3)cc2)C(=O)c2ccccc21	-26	105	92	·
CCOCCn1cnc2sc(C(=O)Nc3ccccc3C(=O)OC)c(C)c2c1=O	·	110	97	107
COc1ccc(OC/C(N)=N/O)cc1	3	109	100	107
Cn1c(C(=O)N2CCC(C(=O)O)CC2)cc2sccc21	·	86	81	108
Cc1ccccc1CN1C(=O)c2ccc(-c3ccccc3)n2CC1(C)C(=O)NC1CCCC1 (stereo unspecified)	-3	·	·	98
COc1ccc(-c2c(C)nn(-c3ccccc3)c2NC(C)=O)cc1OC	-2	77	86	·
Cc1sc2nc3n(c(=O)c2c1C)NC(=O)CC3	-12	118	89	93
O=C(N1CCN(c2ccccc2)CC1)n1ccnc1	-11	80	91	·
CN1C(=O)Cc2cc(S(=O)(=O)N3CCN(c4cccc(Cl)c4)CC3)ccc21	0	·	·	112
Cc1ccc(/C=N/n2c(-c3ccc(Cl)cc3)csc2=NCC2CCCO2)o1 (stereo unspecified)	-9	77	95	·
CCN1CCN(C(=O)c2noc3c2CCCCC3)CC1	3	·	·	101
CC(=O)NS(=O)(=O)c1ccc(NC(=O)C2CC(=O)N(c3ccc(F)cc3)C2)cc1 (stereo unspecified)	2	98	96	100
Cn1c(=O)c(-c2noc(CCC(=O)N3CCOCC3)n2)nn(-c2ccc(F)cc2)c1=O	-70	·	·	105
CN1C(=O)/C(=C/C=C2/CCCN2C)N(C)C1=S	-188	60	2	183
C=CCNC(=O)c1ccc2c(c1)N(CC)C(=O)c1ccccc1S2	·	102	87	105

Among those listed so far, these have two or more sulfur atoms:
SMILES	HCMV NEC inh	Sa growth inh	Sa growth inh second temp	GIV Gai3 FP
Cc1ccc(NC(=O)C2CCCN(S(=O)(=O)c3cccc4nsnc34)C2)c(C)c1 (stereo unspecified)	-70	107	84	101
Cc1ccc(NC(=O)CSc2nnc3scc(-c4ccc(Cl)cc4)n23)cc1	-22	110	87	101
CCOC(=O)c1c(-c2ccc(Cl)cc2)csc1NC(=O)c1sc(C)nc1C	3	·	·	110
CCS(=O)(=O)c1cccc(C(=O)Nc2nc3c(s2)C(=O)CC(C)(C)C3)c1	-66	104	74	103

Limited to GIV Gai3 FP and Sa growth inh second temp, for 2 of the compounds above:
SMILES	GIV Gai3 FP	Sa growth inh second temp
Cn1c(=O)c(-c2noc(CCC(=O)N3CCOCC3)n2)nn(-c2ccc(F)cc2)c1=O	105	·
CN1C(=O)/C(=C/C=C2/CCCN2C)N(C)C1=S	183	2

Other compounds follow.
SMILES	HCMV NEC inh	Sa growth inh	Sa growth inh second temp	GIV Gai3 FP
CCN1CCN(CCCNC(=O)Cc2ccc(NC(=O)N3CCCCc4ccccc43)cc2)CC1	1	92	88	100
CCN(CC)C(=O)Cn1c(=O)n(CCCCCC(=O)NCc2ccccc2)c(=O)c2sccc21	9	92	94	99
O=C(CCSc1ccccc1)NC1CC1	-10	104	89	·
COc1ccc(Cn2ccc3nc(C)c(C(=O)N4CCN(C)CC4)cc3c2=O)cc1	-38	103	80	98
CCCCn1c(Cc2ccccc2)nnc1SCC(=O)OCC	10	106	90	100

Bioassay records (PubChem BioAssay)
